Source: PubChem
NPYLR7 agonist: agonists of mosquito NPYLR7 receptor, primary screen, cell-based, Aedes aegypti, calcium fluorescence, mosquito biting behavior | 270,000 compounds, 0.15% hits | activation, % at 10 µM | Aedes aegypti neuropeptide Y-like receptor 7 (NPYLR7) | HEK293T NPYLR7/Galpha15, GCaMP6s calcium fluorescence; in the data active = activation above about 40%;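 also: 0% = vehicle and 100% = reference agonist at the receptor; some compounds past the cut are filed as inactive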
NPYLR7 agonist max-min: second read-out of NPYLR7 agonist, no call of its own (marks repeat the call); activation, %; measured here: Max-Min RFU normalised activation; some inactives read as strong as hits;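 span of the calcium signal over five minutes; 0% = vehicle and 100% = native peptide agonist; compound fluorescence can raise it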
* hit, by the source's call; & = joins results of further samples. Some of the compounds tested (hit frequency here may not be typical).

The line under a structure holds: NPYLR7 agonist, NPYLR7 agonist max-min
- COc1cccc(-c2noc(COc3cccc4c3OC(C)(C)C4)n2)c1
 : 3, 1
- CC(C)c1nc(SC(C)c2nnc(-c3cccs3)o2)n[nH]1 (stereo unspecified)
 : -4, -3
- CC(NC1CCc2ccccc21)C(=O)c1c(N)n(C)c(=O)n(C)c1=O (stereo unspecified)
 : 9, 3
- Cc1ccc(F)cc1CN1CCCCC1CCN1CCOCC1 (stereo unspecified)
 : -1, 1
- CC(=O)Oc1ccc(C2C(C#N)=C(C)NC3=C2C(=O)CC(c2ccccc2)C3)cc1 (stereo unspecified)
 : -5, -10
- Cc1ccccc1N1CCN(C2CCCN(Cc3cccc4nonc34)C2)CC1 (stereo unspecified)
 : -2, -4
- CCCOC(=O)CC1Sc2ccccc2NC1=O (stereo unspecified)
 : -3, -9
- CCCNCc1c(-c2ccc(F)cc2)noc1N1CCN(C)CC1
 : 18, 12
- CCc1nc2ccc(C(=O)NCCOc3ccc(OC)cc3)cn2c1N(CC)CC(=O)N(C)C
 : 15, 19
- O=C(NCCS(=O)(=O)N1CCCC1)c1ccc(NC(=O)C2CCC2)cc1
 : 6, 3
- O=C(Nc1ccc2c(c1)CN(C(=O)c1cccs1)CC2)c1ccccc1Cl
 : 18&11, 8&4
- Cc1cccc(S(=O)(=O)N2CCN(CCc3ccncc3)CC2)c1
 : 3, 2
- Cc1ccc2c(c1)C(=O)C1(O)CCN(c3ccccc3)C1=N2 (stereo unspecified)
 : -15, -18
- N#CC1C(=N)SC(=N)C(C#N)C1c1ccc(-c2ccccc2)cc1 (stereo unspecified)
 : 3&-2, 1&-3
- CCn1cc(-c2nnc(SCC(=O)c3ccccc3)n2C)ccc1=O
 : 6, 6
- O=C(Cn1nnc(-c2ccc(F)cc2)n1)N1CCOCC1
 : 0, -2
- O=C(C1CNCCN1C(=O)CCn1nnc2ccccc21)N1CCOCC1 (stereo unspecified)
 : 9, 4
- COc1cc(OC)cc(N2CCC(N)C2=O)c1 (stereo unspecified)
 : 1, 25
- COCCOc1nc(-c2ccc(C)cc2)n(-c2ccc(NC(=O)Cc3cccs3)cc2)n1
 : 14, 14
- N#Cc1cnc(NCc2ccc(N3CCOCC3)c(F)c2)c(Cl)c1
 : -23, -26
- Cc1cc(Oc2cccc(F)c2)nc(SCc2ccccc2C#N)n1
 : -12, -8
- COc1ccccc1C(=O)N1CCC(O)(c2cccc(C)c2C)CC1
 : 2, -1
- CN1CCC(Nc2cc(F)cc(Br)c2)C1=O (stereo unspecified)
 : -3, -4
- CCCCc1nc(N2CCCN(C(=O)COC)CC2)c2c(-c3ccccc3)noc2n1
 : 9, -2
- CCNC(=O)c1cc2c(=O)n3ccccc3nc2n1C
 : -2, -4
- O=C(N[C@@H]1CCCc2ccccc21)c1ccc(SCc2ccccc2)nc1
 : 25, 14
- O=C(CCOc1ccc(Cl)cc1)N1CCOC(COc2cccc(C(F)(F)F)c2)C1 (stereo unspecified)
 : 13, 14
- O=C(c1cc(-c2ccccc2F)n2nc(-c3ccc(Cl)cc3)cc2n1)N1CCCCC1
 : 19, 11
- CCOc1ccc(C(=O)NCCc2csc3nc(-c4cccs4)nn23)cc1OCC
 : -9, -3
- O=C(NCCC1CC2CCC1C2)C1CCCN1C(=O)c1ccccc1O (stereo unspecified)
 : 8, 6
- Cc1oc(-c2ccc(Cl)cc2)nc1C(=O)Nc1ncccc1O
 : -4, -5
- Cc1cc(=O)[nH]c(SCC(N)=O)c1C#N
 : 9, 10
- C=Cc1ccc(C(=O)NC2CC(=O)N(CCc3ccccc3)C2)cc1 (stereo unspecified)
 : 11, 4
- Cc1nn(CC(=O)NC2CC2)c(C)c1S(=O)(=O)N1CCOCC1
 : 0, 26
- COc1ccc2c(c1)CCc1c(-c3ccc(C(=O)N4Cc5ccccc5C4)cc3)n[nH]c1-2
 : 27, 20
- CC(NC(=O)c1cc2cc(Br)ccc2[nH]1)c1ccncc1 (stereo unspecified)
 : -3, -5
- CCCC1=NN(C(C)=O)C(C(=O)NCCCN2CCCCC2C)O1 (stereo unspecified)
 : -5, -6
- CCN1CCN(c2ccc(NC(C)C(=O)NCc3ccc(Cl)cc3)c(C)c2)CC1 (stereo unspecified)
 : -1, -2
- CC(Cc1ccccn1)N(C)C(=O)c1cccc(-n2cnnc2)c1 (stereo unspecified)
 : 5, 5
- Cn1cc(NC(=O)c2cc3ccccc3cc2NC(=O)OC(C)(C)C)cn1
 : -7, -6
- CC(C)(O)CNC(=O)C1CCCN1C1CCN(CC(F)(F)F)CC1 (stereo unspecified)
 : -2, -3
- CC(=O)Nc1ccc(CC2CCN(C(=O)c3ccno3)CC2)cc1
 : 3, 4
- O=S(=O)(c1ccc(Cl)c(NC2=NCCCS2)c1)N1CCOCC1
 : 4, 0
- COc1ccc(-c2cccc(-c3cccc(NC(=O)c4ccc(C(F)(F)F)cc4F)c3)n2)cc1
 : -3, -8
- Cc1cccnc1-n1nc(C2CC2)nc1Cn1nc(C)c2ccccc2c1=O
 : 15, 0
- COCCS(=O)(=O)N(Cc1ccc(F)cc1)C1CC1
 : -1, -2
- CCOc1ccc(-n2c(SCC)nc3c(c2=O)SCC3)cc1
 : 0, 63
- CC(NC(=O)c1cccs1)C12CC3CC(CC(C3)C1)C2 (stereo unspecified)
 : -21, -22
- CCc1nc2ccc(C(=O)Nc3cccc(OC)c3)cn2c1N(CC)Cc1ccc(OC)c(OC)c1
 : 19, 12
- CC1CCc2ccccc2N1CCNC(=O)c1ccn[nH]1 (stereo unspecified)
 : -1, -2
- COc1ccc(CCN(C)C(=O)Cc2csc(NC(=O)CN(C(=O)c3ccccc3)C3CC3)n2)cc1OC
 : 18, 18
- O=C1NCC2(CCCN(C(=O)CCc3cn4ccccc4n3)CC2)O1 (stereo unspecified)
 : 1, 0
- COc1cccc(CCNC(=O)c2ccc(-c3cc(-c4ccc(Cl)cc4Cl)[nH]n3)cc2)c1
 : 5, 3
- NC(=O)C1CCN(C(=O)c2cn(-c3ccccc3)nc2-c2ccccc2)CC1
 : 2, 1
- CCOc1ncccc1CN1CCCC(C(=O)Nc2ccc(OC)nc2)C1 (stereo unspecified)
 : -5, -9
- O=C(Nc1cccc(/C=C/c2ccccn2)c1)C1CC(=O)N(C2CCCC2)C1 (stereo unspecified)
 : 12, 9
- Cc1noc(C)c1C1CCCN1Cc1ccc(-c2ccn[nH]2)o1 (stereo unspecified)
 : 11, 10
- Cc1nnc(SCC(=O)N2CCCC2c2cc(C(C)C)on2)s1 (stereo unspecified)
 : 12, 0
- Cc1ccc(C)c(CSc2nc(=O)n3ccc(C)cc3n2)c1
 : 2, -1
- COc1ccc(NC(=O)c2cccc(S(=O)(=O)Nc3ccc(C(=O)O)cc3)c2)cc1
 : -25, -25

Following part.
The line under a structure holds: NPYLR7 agonist, NPYLR7 agonist max-min
- Cc1ccc2cccc(OC(=O)c3ccc(C(C)(C)C)cc3)c2n1
 : 6, 10
- COCCN(CC(=O)N(CCc1c[nH]c2ccccc12)Cc1ccc(F)cc1)C(=O)c1cc(OC)cc(OC)c1
 : 15, 20
- CCC(C(=O)Nc1cc(-c2cn3nc(OC)ccc3n2)ccc1C)c1ccccc1 (stereo unspecified)
 : -6, -12
- CN(Cc1cc(C(C)(C)C)n[nH]1)C(=O)c1cccc(C#CC(C)(C)O)c1
 : 1, -2
- C=CCN1C(=O)C2(CC(=O)N(CCCN(C)C(=O)c3ccco3)C2=O)c2cc(C)ccc21 (stereo unspecified)
 : 9, -1
- Cc1noc2nc(-c3ccc(F)cc3)cc(C(=O)Nc3ccc(F)cc3)c12
 : 1, 1
- CCCCCOc1ccc(C(=O)NCc2cccnc2)cc1OCCCCC
 : 4, -1
- CN1CCN(C)C2(CCN(C(=O)c3cc4c(Cl)cccc4[nH]3)CC2)C1
 : 15, 9
- Cc1cccc(C)c1NC(=O)c1cccc(CN(C)C(C)c2ccco2)c1 (stereo unspecified)
 : -7, -5
- CCc1cnc2c(c1NCCC(c1ccccc1)c1ccccc1)c(=O)n(C)c(=O)n2C
 : 7, 2
- Cc1ccc(C(=O)c2nc3c(n2O)CCCCC3)cc1
 : 16, 8
- CC(O)C12c3ccccc3C(c3ccccc31)C1C(=O)N(c3ccccc3C(F)(F)F)C(=O)C12 (stereo unspecified)
 : -5, -6
- COc1ccc(C2=NN(C(=O)CN3CCCCC3C)C(c3ccc(C)cc3C)C2)cc1 (stereo unspecified)
 : 24, 23
- C=CCNC(=O)C(NC(=O)c1ccccc1)C1CCN(C(=O)NC(C)C)CC1 (stereo unspecified)
 : 7, 3
- O=C(CCc1ccccc1)Nc1nnc(SCc2cc(F)cc(F)c2)s1
 : 0, 18
- COc1ccc(CNC(=O)c2c(C)[nH]n(-c3ccccc3)c2=O)cc1OC
 : 7, 2
- c1ccc(C2CCCN2Cc2cccc(-n3cccn3)c2)nc1 (stereo unspecified)
 : 4, -3
- O=C(C1CCCO1)N(Cc1ccc(-c2ccccc2)cc1)Cc1cc2ccccc2o1 (stereo unspecified)
 : 27, 19
- Brc1ccccc1-c1nnc(CSc2nnc(-c3ccc[nH]3)o2)o1
 : 4, 1
- Cc1cc(NC(=O)C2(C)CCN2C(=O)C2(c3ccc(Cl)cc3)CC2)no1 (stereo unspecified)
 : -5, -12
- C=CCN(CC(=O)N1CCc2sccc2C1COc1ccc(OC)cc1)C(C)C(C)(C)O (stereo unspecified)
 : -3, -2
- COc1ccc(NC(=O)c2cnn3c2NC(c2ccc(C)cc2)CC3C(F)(F)F)cc1OC (stereo unspecified)
 : 2, 1
- O=C(CN(CCN1CCOCC1)C(=O)Nc1cc(C(F)(F)F)cc(C(F)(F)F)c1)N(Cc1ccc2c(c1)OCO2)Cc1ccco1
 : -11, -12
- CC(C)c1cc(-c2nn3c(C4COc5ccccc5O4)nnc3s2)n[nH]1 (stereo unspecified)
 : -7, -17
- O=C(CSc1nc2ccccc2c(=O)n1-c1ccc(F)c(Cl)c1)N1CCCCC1
 : 12, 7
- CCOc1ncccc1C(=O)N1CCOC(COCc2ccccc2F)C1 (stereo unspecified)
 : -5, -8
- CC(C(=O)NCc1ccc(F)cc1)N1C(=O)c2ccccc2C1=O (stereo unspecified)
 : 16, 16
- O=C1C(C(c2ccc(Br)cc2)N2CCC(O)CC2)Sc2nc(-c3ccco3)nn21 (stereo unspecified)
 : -1, 0
- O=S(=O)(Nc1ccccn1)c1ccc(Sc2ccc(Cl)cc2)nc1
 : 11, 8
- CCCNC(=O)CN1CC(c2ccsc2)CC1C (stereo unspecified)
 : 0, -2
- COc1ccc(NC(=O)N(CC(=O)N(Cc2ccc3c(c2)OCO3)Cc2ccc(C)o2)CC(C)C)c(OC)c1
 : -1, 4
- O=CN1CCCN(C(=O)CC2C(=O)NCCN2Cc2ccc(-c3ccccc3)cc2)CC1 (stereo unspecified)
 : 7, 6
- CN(C)CCOC(c1ccc(Cl)cc1)c1ccccn1 (stereo unspecified)
 : 3&2&-7&-4, 0&-3&-11&-8
- CCOc1ccc(C2=C(C(=O)CC)Sc3nnc(Cc4ccccc4)n3N2C(=O)CC)cc1
 : 2, 2
- COc1ccc(C)cc1C(=O)Nc1cc2c(cc1Cl)OCO2
 : -2, -3
- CS(=O)(=O)c1ccc(C(=O)OC/C=C/c2ccccc2)cc1
 : -7, -7
- Cc1nc(CCNc2nc(-c3cccnc3)nc3c2CCNC3)sc1C
 : 18, 4
- Clc1ccc(-c2nc(CSCc3ccccc3Cl)cs2)cc1
 : 3, -2
- CCCCN=C(NC(=O)c1ccc(Cl)c(Cl)c1)OC
 : 0, 1
- CCCOc1ccc(Br)cc1C(=O)N1CCOCC1
 : -6, 2
- CC1CCc2c(sc(NC(=O)c3cc4nc(-c5ccccc5)cc(C(F)(F)F)n4n3)c2C(N)=O)C1 (stereo unspecified)
 : 9, 6
- CCOc1ccc(C)cc1S(=O)(=O)Nc1ccc(I)cc1
 : 5, 2
- CCCOC(=NCCCN(C)C)NC(=O)c1ccc(Cl)c(Cl)c1
 : -3, 3
